D2 agonist – Beta-Arrestin HTS for Positive Allosteric Modulators of the Human D2 Dopamine Receptor: Agonists; 360,000 compounds, 0.084% hits; D(2) dopamine receptor (Homo sapiens), P14416; activation, % (test concentration not listed); DiscoveRx PathHunter D2 beta-arrestin, luminescence, 90 min; 100% = 57 uM dopamine signal; AID 624465, 2012; in the data active = activation above about 40%; inconclusive = about 15% to 40%; inactive = below about 15%; further: compound concentration not given in the record; the text of the record calls up to 30% inactive
Target sequence (P14416 whole entry, looked up): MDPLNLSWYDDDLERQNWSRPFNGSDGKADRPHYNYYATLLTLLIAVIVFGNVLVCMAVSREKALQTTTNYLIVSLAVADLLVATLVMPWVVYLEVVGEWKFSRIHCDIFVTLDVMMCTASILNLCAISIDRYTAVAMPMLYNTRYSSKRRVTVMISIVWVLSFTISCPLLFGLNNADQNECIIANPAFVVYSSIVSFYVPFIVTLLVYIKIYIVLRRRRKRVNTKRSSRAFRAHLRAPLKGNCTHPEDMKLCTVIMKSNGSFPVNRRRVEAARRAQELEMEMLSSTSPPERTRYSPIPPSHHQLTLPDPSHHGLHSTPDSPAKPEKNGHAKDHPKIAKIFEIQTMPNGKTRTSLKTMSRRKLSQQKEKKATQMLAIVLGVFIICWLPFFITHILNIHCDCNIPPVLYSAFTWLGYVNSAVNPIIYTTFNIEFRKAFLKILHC
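Agonist mode: compounds alone added to overnight-plated D2 PathHunter cells for 90 min at 37 C, with 57 uM final dopamine (EC100) defining full response. Beta-arrestin recruitment detected by chemiluminescent reagent, read after 1 h at ambient temperature.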
Sfp PPTase inh – qHTS Assay for Inhibitors of Bacillus subtilis Sfp phosphopantetheinyl transferase (PPTase) | Biochemical Sfp PPTase activity, qHTS | Potency, µM, for the others: max response, negative = inhibition, hits mostly inhibitors | 310,000 compounds, 3.5% hits | AID 1490, 2009; active means well fitted inhibition curve with a large enough effect; inconclusive means small, poorly fitted or top-dose-only effect, or another doubt; inactive means no such curve, though single readings can be large or run the other way;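 further: the enzyme is Sfp with the accession as filed and its product quenches rhodamine fluorescence; potency means the concentration at half of the fitted maximal effect; 0% = enzyme reaction without inhibitor and -100% = no enzyme wells; top concentration of the series not given in the record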
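Compounds were incubated with enzyme (final 15 nM) for 15 min at room temperature before substrate addition started the reaction. Fluorescence at 525 nm excitation, 598 nm emission was recorded immediately and after 30 minutes.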
gsp antag – qHTS for Antagonists of gsp, the Etiologic Mutation Responsible for Fibrous Dysplasia/McCune-Albright Syndrome: qHTS; Potency, µM (titrated, usually from 76.9 µM), inactives show at the top dose activity change, negative = inhibition, usual class: inhibitors; AID 624288, 2012; gsp-mutant cells, cAMP HTRF, 30 min; control for the full effect not named in the record; 340,000 compounds, 0.4% hits; active = falling curve of any shape with a large fitted effect; inconclusive = falling curve, mostly with a smaller effect; inactive = flat or rising curve; cell line not stated here;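 further: intracellular cAMP measured with PDE inhibitor Ro 20-1724 present during compound exposure; potency means the concentration at half of the fitted maximal effect; on the % scale 0 is the no-effect control and ±100 the full control effect; nearly all actives have a fitted effect of over 65% in size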
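G418-selected cells were plated in DMEM/10% FBS for 16-24 h at 37C, then treated with compounds plus the PDE inhibitor […] (300 uM solution added) for 30 min at 37C. Intracellular cAMP was measured by HTRF after 30 min lysis at room temperature.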
gsp ag – qHTS for Agonist of gsp, the Etiologic Mutation Responsible for Fibrous Dysplasia/McCune-Albright Syndrome: qHTS; gsp mutant cells, cAMP HTRF, 30 min; control for the full effect not named in the record; Potency, µM (titrated, usually from 76.9 µM), without a hit: at the top dose activation (cAMP increase), usual class: activators; 340,000 compounds, 0.13% hits; active = well fitted activation curve with a large enough effect; inconclusive = small, poorly fitted or top-dose-only effect, or another doubt; inactive = no such curve, though single readings can be large or run the other way; cell line not stated here;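 further: phosphodiesterase inhibitor Ro 20-1724 added with compounds to block cAMP breakdown; potency means the concentration at half of the fitted maximal effect; nearly all actives have a fitted effect of over 60% in size; about a fifth of the inactives were tested at one dose only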
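Cells in DMEM/10% FBS with G418 were pretreated with compounds in DMSO plus […] (300 uM stock) for 30 min at 37C. cAMP was measured by HTRF (cAMP-d2 plus anti-cAMP antibody-K) after 30 min at room temperature.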
PINK1 expr mod – A Quantitative High throughput Screen to Identify Chemical Modulators of PINK1 Expression. PINK1 immunofluorescence, high-content cytometry, 24 h. Potency, µM (highest dose often 76.6 µM), for the others: at the top dose activation (PINK1 increase), hits mostly activators. 410,000 compounds, 0.2% hits. AID 624263, 2012; active = well fitted activation curve with a large enough effect; inconclusive = small, poorly fitted or top-dose-only effect; inactive = flat fitted curve, though single readings scatter; cell line not stated here;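 further: potency means the concentration at half of the fitted maximal effect; % of control where 0% means no effect; nearly all actives have a fitted effect of over 65% in size; a mitochondrial uncoupler was the plate control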
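Readout is PINK1 immunofluorescence, quantified alongside mitochondrial, cell and nuclear markers by laser-scanning microplate cytometry. Cells from a stable line were exposed to compound titrations (5 concentrations) for 24 hours, with CCCP controls.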
Menin-MLL FL inh – qHTS Assay for Inhibitors Targeting the Menin-MLL Interaction in MLL Related Leukemias: Competition With Fluorescein Labeled MLL-derived Peptide; FP activity change, % at 61.4 µM; AID 1766, 2009; Fluorescence polarization, fluorescein-MLL peptide displacement from menin; 290,000 tested, under 10 active; inconclusive = falling polarisation curve, or a change in total fluorescence; inactive = total fluorescence flat and polarisation flat or rising; no compound was filed as active; the % refers to the polarisation; negative = inhibition;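 further: % of control where 0% means no effect; inhibitors lower the polarisation; unlabelled MLL peptide was the positive control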
ClpP mod – qHTS Assay for Activators of ClpP | ATP-dependent Clp protease proteolytic subunit (Bacillus subtilis (strain 168)), P80244 | purified B. subtilis ClpP, FRET peptide cleavage, 20 min | Potency, µM (titrated, usually from 57.5 µM), for inactives: top-dose activity change, negative = active | 340,000 compounds, 1.9% hits | AID 651965, 2013; active = well fitted falling curve with a large enough effect; inconclusive = small, poorly fitted or top-dose-only effect; inactive = no such curve, though single readings can be large or run the other way; further: potency means the concentration at half of the fitted maximal effect; the source files actives as falling curves though it sought activators and does not explain the sign; nearly all actives have a fitted effect of over 65% in size; many hits overshoot -100%
Target sequence (P80244 whole entry, looked up): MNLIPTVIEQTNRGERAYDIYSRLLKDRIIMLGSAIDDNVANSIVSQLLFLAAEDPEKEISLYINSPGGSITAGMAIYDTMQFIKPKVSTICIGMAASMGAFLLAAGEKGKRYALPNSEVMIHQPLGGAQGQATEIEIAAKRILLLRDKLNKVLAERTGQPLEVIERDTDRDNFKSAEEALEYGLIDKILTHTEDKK
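Buffer: 100 mM Tris/HCl pH8, 100 mM KCl, 0.05% low protease BSA, 2.5% glycerol, 0.01% Tween-20. ClpP 10 microg/mL final; 20 min RT; delta FRET normalized to ADEP and DMSO controls.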
Starred values were filed as active, the others as inactive; u = inconclusive; x = no result given; & = joins results of further samples; [ ] = another dose, or the depositor's remark.

SMILES	D2 agonist	Sfp PPTase inh	gsp antag	gsp ag	PINK1 expr mod	Menin-MLL FL inh	ClpP mod
O=C(Nc1ccon1)c1cccc(S(=O)(=O)N2CCCC2)c1	3.0	18%	-2%	u	5.5%[38.3 µM]	4.9	-1.7%
Cc1nc2ccc3nc(NC(=O)c4ccco4)sc3c2s1	1.1	x	6%	-38%[inhibitor]	u	x	-9.8%
CN1CCN(C2=C(Cl)C(=O)N(c3ccc(Cl)cc3)C2=O)CC1	-0.2	-13%	4%	u	0.0%[38.3 µM]	4.9	0.9%
COc1ccc(N2C(=O)[C@@H]3[C@H](C2=O)[C@H]2C=CC=NN2[C@@H]3C(=O)Nc2ccc(Cl)cc2)cc1	-5.3	35µM*	u	-21%	-0.9%	0.3	2.2%
Cc1cc2c(NC(=O)Nc3ccc(C(F)(F)F)cc3)cccc2nn1	u	-30%	0%	12%[15.4 µM]	u	0.0	-0.6%
NCC(=O)N1CCC(C(=O)N[C@@H](Cc2c[nH]c3ccccc23)C(=O)O)CC1	-4.2	1%	9%	u	1.2%	0.9	-1.8%
CC1=N/C(=C\c2ccc3c(c2)OCO3)C(=O)N1c1ccc(C(=O)O)cc1	-2.0	10%	-13%	-2%	2.5%	24	-1.1%
CCOC(=O)[C@H]1[C@H]2COc3ccccc3[C@@H]2N2C(=O)[C@@H](C)NC(=O)[C@@]12C	-1.5	x	4%	-20%	-0.5%	x	-1.1%
S=c1nc(Cc2ccccc2)[nH]c2ccccc12	-3.8	29%	14%	u	10%	-4.0	x
COc1ccc(N=CC=C2OC(C)(C)C(C)(C)O2)cc1OC	2.3	-2%	-5%	-11%	0.6%	-1.5	4.4%
CCOC(=O)N1CCN(c2c(NCCc3ccc(OC)c(OC)c3)c(=O)c2=O)CC1	-1.0	-8%	15%	-15%	0.8%	1.2	-0.8%
CC1Sc2ccc(C(=O)Nc3cc(S(C)(=O)=O)ccc3Cl)cc2NC1=O (configuration not stated)	-1.6	x	5%	0%	9.1%	x	1.2%
CCC1CCCCN1CCNC(=O)C1CCN(S(=O)(=O)c2c(C)noc2C)CC1 (configuration not stated)	-4.7	18%	3%	-19%	1.1%	-2.3	-2.8%
Cc1cc(C(=O)N2CCC2(C)C(=O)Nc2cccc3c2CCCC3)nn1C (configuration not stated)	4.8	x	x	x	-0.5%	x	1.2%
COc1ccc(C(=O)Nc2c(N)nc(SCC(=O)Nc3ccc(NC(C)=O)cc3)[nH]c2=O)cc1OC	-4.1	-9%	2%	21%	1.5%	x	-1.0%
Fc1ccccc1NC(=S)N1CCN(Cc2ccc3c(c2)OCO3)CC1	-3.0	6%	0%	-10%	-0.3%	1.1	x
C/C(=N\NC(=O)c1nnn(-c2nonc2N)c1C(C)C)c1ccc2ccccc2c1	-4.7	17%	7%	-7%	1.6%	1.5	x
COc1ccc(Cl)cc1NC(=O)CN(C)C(=O)C12CC3CC(CC(Cl)(C3)C1)C2	0.6	-5%	-19%	-17%	-2.1%	x	-2.9%
CCn1nc(C)c(CN2CCCCC2C(=O)Nc2ccc(Oc3cccnc3)cc2)c1C (configuration not stated)	-2.3	5%	5%	9%[15.4 µM]	1.0%	x	-1.9%
Cc1cc2c(c(=O)o1)C(C(C)C)C(C#N)=C(N)O2 (configuration not stated)	-2.3	5%	10%	10%	-1.5%	-0.9	6.4%
Cc1cc(SCC2=NNC(=O)C2)c(Cl)cc1Cl	-3.6	7%	0%	-12%[15.4 µM]	3.6%	-2.2	-0.4%
Cc1nc(SCC(=O)N2CCc3ccccc3C2)c2c(C)c(C)sc2n1	1.1	-10%	-7%	-2%	-3.0%	0.8	-3.1%
Cc1nnc(NC(=O)CCC(=O)NCc2ccco2)s1	-2.6	15%	-7%	19%	0.4%	3.6	-1.6%
CCCC(=O)n1nc(-c2cccnc2)nc1NCc1ccccc1	-3.1	0%	-23%	18%[15.4 µM]	1.7%&2.0%	-6.0	-1.4%
O=C(COc1ccc2ccc(=O)oc2c1)Nc1ccc(N2CCOCC2)cc1	-1.5	2%	-7%	7%	7.1%	7.5	u
Cc1ccc(NC(=O)C[n+]2ccccc2)cc1[N+](=O)[O-]	-3.4	13%	-2%	4%	0.8%	-0.9	0.2%
CC(=O)OC/C=C(\C)CC/C=C(\C)CC/C=C(\C)CC/C=C(\C)CC/C=C(\C)CC/C=C(\C)CC/C=C(\C)CC/C=C(\C)CCC=C(C)C	x	8%	x	x	-1.1%	-0.7	x
COc1ccc(CC(=O)NCc2ccc(-n3cccc3)cc2)cc1OC	-1.4	4%	10%	-7%[15.4 µM]	8.5%	4.4	1.3%
Cc1ccc(S(=O)(=O)N2CCN(C)CC2)c(C)c1	-0.5	15%	13%	6%	0.2%[38.3 µM]	3.7	0.2%
COc1ccc(-n2ccnc2SCC(=O)c2c(N)n(C3CC3)c(=O)[nH]c2=O)cc1	-1.8	x	x	-27%	0.8%	x	-1.1%
CCc1ccc(OCCOCC(O)CN2CCN(Cc3ccc(Cl)cc3)CC2)cc1 (configuration not stated)	-0.4	-10%	16%	-14%	3.7%	x	1.6%
Cc1cccc(C)c1NC(=O)N1CCC(c2nc3ccccc3o2)CC1	-4.2	4%	-1%	-42%[inhibitor]	4.1%[38.3 µM]	5.5	-1.8%
CCCCN(CCCNC(=O)C1CCCN(S(=O)(=O)CCC)C1)Cc1ccccc1 (configuration not stated)	2.9	-2%	10%	-26%	-1.5%	8.9	1.1%
C(=N\NC1=Nc2cccc3cccc1c23)/c1cccnc1	-5.2	u	-29%	10%[15.4 µM]	-0.4%	u	x
COc1ccc(Oc2nc(C)cc(C)c2S(=O)(=O)c2ccc(C)cc2)cc1	-2.7	3%	-3%	-12%	0.1%	0.6	-0.7%
COc1ccc(CN(C(=O)CN2C(=O)c3ccccc3S2(=O)=O)C(C(=O)NCC2CCCO2)c2ccncc2)cc1 (configuration not stated)	1.7	-6%	11%	3%	-0.6%	-0.4	-18%
Cc1cc2nc(N)sc2cc1C	-0.1	-8%	4%	-8%	-2.6%	2.8	-0.3%
Cc1ccc(Nc2ccc(C(=O)N3CCCC3)cn2)c(C)c1	2.0	16%	-27%	6%	-0.2%	-7.2	-2.0%
Cc1ccccc1/C(N)=N/O	-0.9	-8%	7%	-3%	-0.6%	3.0	-1.1%
Cc1cccc(C(=O)Nc2ccccc2C(=O)NCc2ccco2)c1	-1.4	14%	-9%	-33%[inhibitor]	3.8%	x	-5.0%
Cc1ccc(C)c(NC(=O)CSc2nnc(NC(=O)C3CC3)s2)c1	-4.4	7%	13%	-1%	u	-1.1	1.5%
Cc1cc(C(=O)COC(=O)Cc2n[nH]c(=O)c3ccccc23)c(C)n1-c1ccc2c(c1)OCCO2	-1.9	-13%	-9%	u	20%	3.1	2.5%
CN1CCc2c(sc(NC(=O)Cc3ccccc3)c2C#N)C1	5.5	-27%	10%	23%	0.3%	1.6	-6.9%
COc1ccc(/C=C2\SC(=S)N(C(C(=O)O)c3ccccc3)C2=O)c(OC)c1 (configuration not stated)	-6.6	71µM*	-14%	-18%	0.4%	u	2.3%
COc1ccc(C(C)NC(=O)Cc2cccs2)cc1 (configuration not stated)	-0.9	-1%	3%	1%[15.4 µM]	-0.9%	1.7	-1.4%
COc1ccc(S(=O)(=O)Nc2ccc3c(c2)C(=O)N([C@H](C)CO)C[C@H](C)[C@@H](CN(C)S(=O)(=O)c2cn(C)cn2)OCCCC[C@H](C)O3)cc1	-2.7	x	x	-50%[inhibitor]	4.6%	x	-1.0%
Cc1ccc(NC(=O)C(C)c2ccc(-c3ccccc3)c(F)c2)cc1 (configuration not stated)	1.8	4%	-16%	-28%	10%	-0.9	35µM*
O=S(=O)(c1ccc(Oc2ccc3oc4ccccc4c3c2)nc1)N1CCCC1	-1.7	20%	24%	1%	9.7%	3.0	1.0%
COc1cc(O)c(C(=O)O)c(O)c1	x	7%	x	x	0.6%	-0.9	x
COc1ccc(CCNC(=O)c2nnc(Cc3c(F)cccc3Cl)o2)cc1OC	-1.1	15%	-1%	13%	2.4%	7.3	0.1%
CCOP(=O)(OCC)C(Cc1ccc(OC)c(OC)c1)N=C(c1ccccc1)c1ccccc1 (configuration not stated)	5.7	x	x	x	1.9%	x	1.0%
Cc1ccc(OCCCC(=O)NCc2ccco2)cc1	-2.2	23%	7%	-62%[inhibitor]	2.8%[38.3 µM]	2.4	1.1%
COc1cccc(NC(=S)/C(=C(\[O-])c2ccc(OC(F)F)cc2)[n+]2ccccc2)c1	5.2	50µM*	-3%	12%	-2.2%	0.0	-7.4%
CC(C)N(C(C)C)S(=O)(=O)c1ccc(NC(=O)c2cnccn2)cc1	5.1	16%	1%	-1%	-0.9%	-0.7	1.6%
O=C(Nc1cccc(Cl)c1N1CCOCC1)c1ccc2c(c1)OCCO2	1.1	-19%	-8%	0%	-0.4%	1.3	1.9%
CCOC(=O)NC1c2ccccc2Oc2ccccc21	-2.7	5%	5%	-8%[15.4 µM]	4.7%	5.5	x
O=C1Nc2ccccc2C12OCCCO2	1.4	13%	14%	-2%	-3.0%	0.8	-0.6%
O=C(c1cnccn1)N1CCC2(CC1)CN(c1ncccn1)C2	x	21%	x	x	1.1%	-2.9	x

Screening results: PubChem BioAssay, National Center for Advancing Translational Sciences (NCATS)

Rows were taken by chance; overall some 5.1% were active at least once.
